N370S GC mod: inhibitors or activators of N370S glucocerebrosidase for Gaucher disease; Potency, µM (highest dose often 59.4 µM), for the others: at the top dose activity change, negative = inhibition, hits mostly inhibitors; P04062; AID 2101; N370S GC spleen homogenate, 4MU-glucoside fluorescence; 330,000 compounds, 0.092% hits;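 note: 0% = full enzyme activity and -100% = no enzyme basal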
DT40 TDP1 CPT: growth inhibition of DT40 Tdp1-/-;hTDP1 cells with camptothecin (screen for TDP1 inhibitors). chicken DT40 Tdp1-/-;hTDP1 cells + 20 nM CPT, ATP luminescence, 48 h. Potency, µM (doses to about 46.2 µM), for inactives: at the highest dose activity change, negative = growth inhibition, actives largely listed as inhibitors. 420,000 compounds, 12% hits; note: nearly all actives have a fitted effect of over 55% in size
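Chicken DT40 Tdp1-/- cells stably complemented with human TDP1 were seeded at 400 cells/well in medium containing 20 nM camptothecin, exposed to pin-transferred compounds, and grown at 37 °C for at least 48 hr. Viability was read as ATP luminescence.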
Starred values were filed as active, the others as inactive; ? = inconclusive; / = not tested or not shown; & = joins results of further samples. Calls come from the whole dose curve; as a rule, active = well fitted curve in the direction sought with a large enough effect; inconclusive = small, poorly fitted or top-dose-only effect, or another doubt; inactive = no such curve, though single readings can be large; an effect the other way counts as inactive or inconclusive. Unless noted, % is set by controls: 0 for no effect and ±100 for the full control effect; potency is the fitted concentration of half-maximal effect. The list is partial, and most or all hits are left out here.

Fields: N370S GC mod	DT40 TDP1 CPT
> CC(=O)c1ccccc1N(C(=O)c1ccco1)C(C(=O)NC1CCCC1)c1ccc(N2CCOCC2)cc1 (stereo not given)
→ 11%	-13%
> Cc1ccc(C(=O)C2CCN(S(=O)(=O)c3c(C)noc3C)CC2)cc1
→ -14%	-9%
> COc1cc(C)nc(N2CCCC(C(=O)Nc3ccccc3Br)C2)n1 (stereo not given)
→ 0%	-4%
> CCOC(=O)N1CCN(C(=O)c2cccc(NS(=O)(=O)c3ccc(F)c(F)c3)c2)CC1
→ 19%	-18%
> CCOC(=O)C1CCCN(Cc2ccccc2Cl)C1 (stereo not given)
→ 16%	-12%
> C#CCn1c(=O)cc(C)c2ccccc21
→ 21%	22%
> CC(C)(C)C(=O)Nc1ccc(S(=O)(=O)Nc2ccccn2)cc1
→ -15%	-18%
> CCOc1ccc(OCC)c(NC(=O)Cn2c(C)nc3ccccc3c2=O)c1
→ -2%	?
> COc1ccc(CN2C(=O)c3cccnc3C2=O)cc1S(=O)(=O)NC(C)C
→ 8%	-4%
> COC(=O)CCC(=O)c1ccn(S(=O)(=O)c2ccccc2)c1
→ 0%	-20%
> CC(C)Nc1nc(-c2cccnc2)nc(-c2ccc(Cl)cc2)c1C#N
→ 4%	-1%
> C=Cn1nc(C)c2ccccc2c1=O
→ 4%	21%
> Cc1ccc(OCCCCNC(C)(C)C)c([N+](=O)[O-])c1
→ 6%	?
> O=C(Nc1nc2ccc(Cl)cc2s1)c1cc(=O)c2ccccc2o1
→ /	-25%
> CC(=O)c1cccc(NC(=O)CCc2nnc3ccc(NCc4ccco4)nn23)c1
→ 0%	?
> CCCCC(Sc1nc(N)c(NC(=O)c2ccc(OCC)cc2)c(=O)[nH]1)C(=O)O (stereo not given)
→ 5%	-3%
> CC(C)N1CCC(=NNC(=O)c2ccc(Br)o2)CC1
→ 8%	-7%
> CC(=O)c1sc(NC(=O)c2ccc(Cn3cc(Br)cn3)o2)nc1C
→ -4%	-5%
> O=S(=O)(Nc1cccc(S(=O)(=O)N2CCOCC2)c1)c1ccc2c(c1)OCCO2
→ -16%	?
> COc1cccc(NC(=O)CN(C)C(=O)CCCc2nc3ccccc3s2)c1
→ 2%	-17%
> Nc1ncc(Br)cc1S(=O)(=O)NCCC(=O)NCCc1ccc(Cl)cc1
→ -7%	-29%
> CCN(CC)c1ccc(S(=O)(=O)N2CCOCC2)cc1NC(=O)COC(=O)c1ccco1
→ 4%	3%
> Cc1ccc2[nH]c(=O)c(CN(C)C(=O)c3cccs3)cc2c1
→ -6%	?
> Cc1coc2c(C)c3oc(=O)c(CCC(=O)NCCC(=O)O)c(C)c3cc12
→ -2%	23%
> NC(=O)c1ccsc1NC(=O)COC(=O)/C=C/c1ccc([N+](=O)[O-])cc1
→ 1%	?
> N#C/C(=C/c1ccc(O)c(O)c1)C(=O)NCc1ccc(Cl)cc1
→ -28%	26µM*
> COc1ccc2c(c1)CC/C(=C/c1cc(OC)c(OC)c(OC)c1)C2=O
→ 15%	?
> O=C(COc1ccccc1)N=C1SC2CS(=O)(=O)CC2N1c1ccccc1F (stereo not given)
→ 1%	-3%
> COc1ccc(C(=O)C2CCCN(C(=O)c3ccnn3C)C2)c(C)c1 (stereo not given)
→ -4%	-22%
> C[C@@H](NC(=O)c1nc[nH]c1C(=O)NCC(=O)OC(C)(C)C)c1ccccc1
→ -3%	-21%
> COc1ccc(CCNC(=O)c2ccc3c(=O)n4c(nc3c2)CCC4)cc1OC
→ -6%	1%
> COc1ccc(CCNC(=O)CSc2nc3[nH]ncc3c(=O)n2-c2ccccc2OC)cc1OC
→ -21%	-27%
> COc1ccc(OC)c(NC(=O)CSc2ncnc3c2cnn3-c2ccccc2Cl)c1
→ 4%	2.1µM*
> O=C(NCC1CCCO1)/C(=C\c1ccccc1F)NC(=O)c1ccccc1 (stereo not given)
→ 0%	20%
> Cc1ccccc1NS(=O)(=O)c1ccc2c3c(cccc13)C(=O)N2C
→ -17%	?
> NC(=O)CC(CC(=O)OCc1ccccc1)c1ccccc1 (stereo not given)
→ 7%	-2%
> CCOC(=O)C(CCc1nnc(N)s1)C(=O)OCC
→ 7%	-20%
> COc1ccc(CNn2c(-c3cccs3)nc3ccccc3c2=O)cc1OC
→ 25%	7.3µM*
> CCCCC(CC)C1OCC(C[N+]2(C)CCOCC2)O1 (stereo not given)
→ 4%	2%
> COc1cc(/C=C/CN2CCC(Oc3ccc(C(=O)N4CCCC4)cc3)CC2)ccc1O
→ -3%	-2%
> COc1ccc(NC2CCCN(C(=O)CCc3ccccc3F)C2)cc1 (stereo not given)
→ 1%	-28%
> O=c1oc2ccccc2c(Nc2cc3ccccc3cc2O)c1[N+](=O)[O-]
→ 13%	5.8µM*
> CC(C)Nc1nc(NC(C)(C)C)nc(Oc2ccc(=O)n(-c3ccccc3)n2)n1
→ 6%	?
> COc1ccc(CN2CCNC(=O)C2CC(=O)N(C)CC2CCOCC2)cc1OC (stereo not given)
→ 21%	8%
> NC(=N\N=Cc1ccccc1)/C(N)=N/N=Cc1ccccc1
→ /	7%
> CCC(C(=O)Nc1ccc([N+](=O)[O-])cn1)c1ccccc1 (stereo not given)
→ -3%	-18%
> CSc1nsc(SCCN2C(=O)c3ccccc3C2=O)n1
→ 7%	-17%
> FC(F)(F)c1ccc(CSc2ccccn2)cc1
→ 7%	-3%
> CN(c1ccc(C(=O)Nc2ccc(Cl)cn2)cc1)S(=O)(=O)c1ccccc1
→ 7%	?
> CC(C)(C)C1CCC(C(=O)NCCc2ccc(S(N)(=O)=O)cc2)CC1 (stereo not given)
→ -2%	?
> CCOC(=O)c1nn(-c2ccc(Cl)cc2)c2nc(CC)c(C#N)c(=O)n12
→ 3%	-7%
> C=CCNC(=O)c1c[nH]c2ccc(S(=O)(=O)N(C)c3ccc(OCC)cc3)cc2c1=O
→ -14%	21µM*
> CCCCn1c(=O)[nH]c(=O)c2c1nc(-c1ccc(-c3ccc(F)cc3)o1)n2C
→ 8%	?
> O=C(COc1ccc2ccccc2c1Br)Nc1cccnc1
→ 0%	16µM*
> Clc1cccc(COn2c(-c3ccc(Cl)cc3Cl)nc3ncccc32)c1
→ 12%	?
> CCN(C(=O)CN1C(=O)S/C(=C\c2cccc(OC)c2)C1=O)C1CCS(=O)(=O)C1 (stereo not given)
→ 0%	?
> Cc1nc2ccc(NC(=O)COc3ccccc3)cc2s1
→ 16%	1%
> Cc1ccc(NC(=O)CSc2ncnc3ccccc23)cc1S(=O)(=O)N1CCCCCC1
→ 12%	26µM*
> CCOC(=O)N1CCN(S(=O)(=O)c2ccc3c(c2)SCC(=O)N3)CC1
→ -11%	?
> COc1ccc(-c2n[nH]c3c2CN(C(=O)c2ccccc2)CC3)cc1
→ 1%	?

Following part.
Fields: N370S GC mod	DT40 TDP1 CPT
> Cc1cc(C)cc(N(C(=O)c2ccc(Br)o2)C2C=CS(=O)(=O)C2)c1 (stereo not given)
→ 10%	-1%
> Cc1ccc(OCCN2C(=O)c3ccccc3C2=O)c(C)c1
→ 6%	25%
> COc1ccc(CNC(=O)C(C)N2CCN(S(=O)(=O)c3ccccc3F)CC2)cc1 (stereo not given)
→ /	-1%
> Cc1cc(-c2ccc(C(C)C)c(S(=O)(=O)N3CCOc4ccccc43)c2)on1
→ ?	?
> NC(=O)CC(NC(=O)c1cccc(Br)c1)c1ccc(NCC2CC2)c([N+](=O)[O-])c1 (stereo not given)
→ -8%	?
> CC1CC(=O)c2cnc(NCC3CCCO3)nc2C1 (stereo not given)
→ 6%	8%
> CCN(CC(=O)NCc1ccc(F)cc1)C(=O)/C=C/c1ccc(OC)cc1
→ 1%	?
> CC(=O)Nc1c2c(nn1-c1ccc(F)cc1)CSC2
→ -3%	3%
> COC(=O)c1c(-c2ccccc2)csc1NC(=O)c1ccco1
→ 1%	3%
> O=S(=O)(NCc1ccc2c(c1)OCO2)c1ccccc1F
→ 0%	?
> O=c1[nH]c(C2CCN(S(=O)(=O)c3ccc(S(=O)(=O)NC4CC4)cc3)CC2)nc2c1nnn2Cc1ccccc1
→ -14%	-4%
> Cc1onc(-c2ccccc2)c1CNC(=O)Nc1cccc(Cl)c1
→ 5%	?
> CC(=O)Nc1ccc(S(=O)(=O)NCC2CCC(C(=O)NCCCOC(C)C)CC2)cc1 (stereo not given)
→ -4%	-11%&-11%
> Cc1cc2c(cc1S(=O)(=O)C(C)CC(=O)NCc1ccco1)OCC(=O)N2 (stereo not given)
→ ?	-4%
> Cc1ccccc1C(=O)Nc1cccc(-c2ccc3nncn3n2)c1
→ -8%	23µM*
> COc1ccc(-c2ccc(=O)n(Cc3cc(=O)n4ccccc4n3)n2)cc1
→ 5%	-23%
> COc1ccc(CCn2c(C(C)C)nc3oc4ccccc4c(=O)c3c2=O)cc1
→ 7%	?
> Cc1cccc(-n2cc(CN3CCN(C(=O)c4ncn[nH]4)CC3)c(-c3cccc(F)c3)n2)c1
→ -25%	0%
> CCOC(=O)CSc1nc2c(c(=O)n1-c1ccc(OC)cc1)SCC2
→ 0%	-21%
> CC(C)OC(=O)/C(=C\c1cccc2ccccc12)NC(=O)c1ccccc1
→ 5%	?
> Cc1cc(C)n(C(=O)c2cc3sccc3[nH]2)n1
→ 5%	-4%
> COCC(C)NS(=O)(=O)c1ccc(C)cc1 (stereo not given)
→ 3%	3%
> Cc1cc(C)nc(SCc2ccc(Br)cc2)n1
→ -3%	-21%
> CCOC(=O)N1CCC(N(CCN(C)C)C(=S)Nc2cccc(SC)c2)CC1
→ -14%	-10%
> O=S(=O)(Nc1ccc(N2CCOCC2)cc1)c1cc(Cl)ccc1Cl
→ -2%	-14%
> COc1ccccc1CNc1ncnc2cc(OC)c(OC)cc12
→ 2%	21µM*
> CCCc1nnc(NC(=O)c2cc(OC)cc(OC)c2)s1
→ 12%	1%
> O=C(Cc1n[nH]c(=O)c2ccccc12)OCC(=O)c1ccccc1Cl
→ -1%	-2%
> CSCC(=O)N1CCc2ccc(NC(=O)c3ccccc3Cl)cc2C1
→ 1%	?
> CCOc1ccc(-n2c(=O)c3c4c(sc3n(CC(=O)NCC3CCCO3)c2=O)CCC4)cc1 (stereo not given)
→ 3%	7%
> Cn1c(CNc2ccc(Cl)cc2)nnc1SCc1ccccc1
→ 4%	-29%
> Cc1ccc(N2C(=O)C(Cl)=C(NCCO)C2=O)c(C)c1
→ -19%	-29%
> COc1cc(NC(=O)c2cc([N+](=O)[O-])ccc2NC(=O)CNC2CCCCC2C)cc(OC)c1 (stereo not given)
→ -7%	?
> CCOCCn1ccc2c(OCC(=O)NCCc3ccc(OC)c(OC)c3)cccc2c1=O
→ -1%	-4%
> CCOc1cc(/C=N/NC(=O)Cc2ccc(C(F)(F)F)cc2[N+](=O)[O-])ccc1O
→ 5%	-14%
> CCOC(=O)n1c(O)c(N=NC(N)=S)c2cc(C)ccc21
→ -3%	-6%
> Cc1cc(C)cc(N2CCN(C(=O)N3CCOCC3)CC2)c1
→ -2%	-10%
> C/C(=N\NC(=O)c1c(Cl)cnn1C)c1cccc(NC(=O)C(C)C)c1
→ ?	-3%
> O=S(=O)(NCCCO)c1ccc2c(c1)Cc1cc(S(=O)(=O)NCCCO)ccc1-2
→ 0%	-11%
> COc1ccc(-c2noc(CCCC(=O)N3CCOCC3)n2)cc1
→ -14%	?
> COc1ccc(C(=O)C2CCCN(C(=O)CCC3=NNC(=O)CC3)C2)c(C)c1 (stereo not given)
→ 5%	-7%
> CC(C)c1nccn1S(=O)(=O)c1cc(Cl)ccc1Cl
→ 1%	-2%
> O=C(COC(=O)/C=C/c1ccc(OC(F)F)cc1)NC1CCCCCCC1
→ -14%	-18%
> CC(NC(=O)c1ccncc1)C(C)(C)C (stereo not given)
→ /	-16%
> CC(C)=N/N=C(\N)SCc1ccccc1
→ 0%	14%
> COc1cc(C(=O)NCCOc2cc(C)cc(C)c2)cc(OC)c1OC
→ -5%	4.1µM*
> CCC(C)N(C(=O)COC(=O)COc1c(C)cc(C)cc1C)C1CCS(=O)(=O)C1 (stereo not given)
→ 0%	12%
> Cc1cccc2sc(NC(=O)C3CCN(C(=O)c4ccco4)CC3)nc12
→ -2%	?
> C=CCOc1cccc(/C=N/NC(=O)CN(c2cc(Cl)ccc2OC)S(=O)(=O)c2ccc(C)c([N+](=O)[O-])c2)c1
→ 9%	?
> N#Cc1cnn(-c2ncnc3sc4c(c23)CCCC4)c1N
→ 16%	-1%

One compound at a time, from the list above. Screens in order: N370S GC mod | DT40 TDP1 CPT
CCOC(=O)n1c(O)c(N=NC(N)=S)c2cc(C)ccc21 in the list: -3% | -6%
Cc1cccc2sc(NC(=O)C3CCN(C(=O)c4ccco4)CC3)nc12 in the list: -2% | ?
Cc1cc(C)cc(N2CCN(C(=O)N3CCOCC3)CC2)c1 in the list: -2% | -10%
CC(C)=N/N=C(\N)SCc1ccccc1 in the list: 0% | 14%
CC(C)c1nccn1S(=O)(=O)c1cc(Cl)ccc1Cl in the list: 1% | -2%

Source: PubChem BioAssay
